Source: PubChem
2A StopGo – High Throughput Screening for Foot and Mouth Disease Virus Antivirals | human cells with a luciferase reporter of 2A StopGo recoding; control for the full effect not named in the record | hit rate 1.2% among 410,000 | Potency, µM (titrated, usually from 57.9 µM), for the others: at the top dose signal change, negative = less light; active = well fitted falling curve with a large enough effect; inconclusive = small, poorly fitted or top-dose-only effect; inactive = no such curve, though single readings can be large or run the other way; tested in HEK293T cells; further: on the % scale 0 is the no-effect control and ±100 the full control effect; nearly all actives have a fitted effect of over 45% in size; luciferase light after 4 h
Marburg entry inh – qHTS for inhibitors of binding or entry into cells for Marburg Virus. Marburg virus pseudotyped entry inhibition, cell reporter; control for the full effect not named in the record; about a third of the inactives were read at about 46 µM. Potency, µM (titrated, usually from 37.8 µM), for inactives: at the top dose activity change, negative = inhibition, actives largely listed as inhibitors. hit rate 1.8% among 300,000. AID 540276, 2011; active = well fitted inhibition curve with a large enough effect; inconclusive = small, poorly fitted or top-dose-only effect, or effect the other way; inactive = flat fitted curve, though single readings scatter; tested in HEK293 cells; about a fifth of its hits are not listed in these tables; further: on the % scale 0 is the no-effect control and ±100 the full control effect; luciferase read-out
Cruzain inh noDet – qHTS Assay for Promiscuous and Specific Inhibitors of Cruzain (without detergent) | Cruzipain (Trypanosoma cruzi), P25779 | purified cruzain, Z-FR-AMC fluorescence, no detergent | Potency, µM, inactives show max response, negative = inhibition, most hits filed as inhibitors | hit rate 2.3% among 200,000;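 further: plate controls were enzyme without inhibitor for no effect and buffer without enzyme for full effect; nearly all actives have a fitted effect of over 40% in size; top concentration of the series not given in the record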
Target sequence (P25779 123-467 limits assumed): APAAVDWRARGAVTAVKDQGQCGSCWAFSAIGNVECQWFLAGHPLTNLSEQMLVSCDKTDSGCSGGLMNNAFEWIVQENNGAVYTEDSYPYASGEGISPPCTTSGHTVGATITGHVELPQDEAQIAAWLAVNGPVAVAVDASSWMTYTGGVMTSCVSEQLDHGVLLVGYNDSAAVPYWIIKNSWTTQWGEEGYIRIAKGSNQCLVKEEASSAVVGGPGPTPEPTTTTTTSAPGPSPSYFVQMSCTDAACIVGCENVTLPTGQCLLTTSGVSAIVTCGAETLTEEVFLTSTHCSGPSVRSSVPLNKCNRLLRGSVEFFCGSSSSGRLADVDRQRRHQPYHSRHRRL
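Detergent-free condition (0.00005% Triton X-100) in acetate buffer pH 5.5 with DTT. 1.5 nM enzyme and compound were pre-mixed 15 min, then 2 uM Z-FR-AMC substrate added; reaction progress from fluorescence change between first and third reads (60 s).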
SARS PLpro yeast – qHTS of Yeast-based Assay for SARS-CoV PLP; Potency, µM (series often up to 32.9 µM), inactives show top-dose activity, positive = growth rescue; S. cerevisiae expressing SARS-CoV PLpro, growth rescue; control for the full effect not named in the record; hit rate 0.19% among 330,000; active means well fitted rising curve with a large enough effect; inconclusive means small, poorly fitted or top-dose-only effect; inactive means no such curve, though single readings can be large or run the other way; further: 0% is about no effect; nearly all actives have a fitted effect of over 55% in size; growth read by luminescence after 48 h
LASV entry inh – qHTS for Inhibitors of binding or entry into cells for Lassa Virus; Lassa virus pseudotype entry inhibition, cell reporter; control for the full effect not named in the record; Potency, µM (top dose mostly 37.9 µM), for inactives: top-dose activity change, negative = inhibition, actives largely listed as inhibitors; hit rate 1.2% among 300,000; active means well fitted inhibition curve with a large enough effect; inconclusive means small, poorly fitted or top-dose-only effect, or effect the other way; inactive means flat fitted curve, though single readings scatter; tested in HEK293 cells; further: on the % scale 0 is the no-effect control and ±100 the full control effect; nearly all actives have a fitted effect of over 50% in size; luciferase read-out
RE007 growth inh – qHTS Assay for Inhibitors of the HIV-1 protein Vpr; S. pombe RE007 Vpr strain, BacTiter-Glo ATP luminescence, 24 h; control for the full effect not named in the record; Potency, µM (series often up to 92.2 µM), without a hit: top-dose activity change, negative = less growth; hit rate 0.21% among 360,000; AID 651644, 2012; active = well fitted falling curve with a large enough effect; inconclusive = small, poorly fitted or top-dose-only effect; inactive = no such curve, though single readings can be large or run the other way;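 further: on the % scale 0 is the no-effect control and ±100 the full control effect; nearly all actives have a fitted effect of over 50% in size; the assay follows cell death caused by Vpr and the record does not say whether a fall means rescue or toxicity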
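Fission yeast strain RE007, carrying one chromosomally integrated HIV-1 vpr copy, was seeded at OD 0.01 in PMG+AL medium with 23 nL pinned compound. After 24 h at 30 °C and 99% humidity, viability was read by BacTiter-Glo luminescence.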
NS1 inh – qHTS Assay for Inhibitors of Influenza NS1 Protein Function. S. cerevisiae slowed by influenza A NS1, growth recovery by OD600. Potency, µM (titrated, usually from 46.1 µM), for the others: at the highest dose activity, positive = more growth. hit rate 0.4% among 270,000. AID 2326, 2010; active means well fitted rising curve with a large enough effect; inconclusive means small, poorly fitted or top-dose-only effect; inactive means no such curve, though single readings can be large or run the other way; further: nearly all actives have a fitted effect of over 50% in size
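Compounds were scored for reversing the slow growth caused by influenza A NS1 in S. cerevisiae, measured by optical density at 600 nm. Assay medium contained 2% galactose at pH 6.0; NS1-free yeast of the same strain were the positive control.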
Cruzain Triton – qHTS Assay for Promiscuous and Specific Inhibitors of Cruzain (with detergent); purified cruzain, Z-FR-AMC fluorescence, 0.01% Triton; Potency, µM, without a hit: max response, negative = inhibition, hits mostly inhibitors; Cruzipain (Trypanosoma cruzi), P25779; hit rate 0.43% among 200,000;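 further: plate controls were neutral wells for no effect and buffer without enzyme for full effect; nearly all actives have a fitted effect of over 40% in size; top concentration of the series not given in the record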
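Cruzain (1.5 nM) preincubated 15 min at RT with compound in 100 mM sodium acetate pH 5.5, 5 mM DTT, 0.01% Triton X-100. Reaction started with 2 uM Z-FR-AMC; AMC fluorescence (ex 360/em 450 nm) change over 60 s gave rate.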
An asterisk follows results filed as active; ? = inconclusive; · = not tested or not shown; & = joins results of further samples; [ ] = remark or other dose. Unless noted, the call rests on the fitted dose curve; in most records, active means well fitted curve in the direction sought with a large enough effect; inconclusive means small, poorly fitted or top-dose-only effect, or another doubt; inactive means no such curve, though single readings can be large; an effect the other way counts as inactive or inconclusive. Potency means the concentration at half of the fitted maximal effect.

SMILES	2A StopGo	Marburg entry inh	Cruzain inh noDet	SARS PLpro yeast	LASV entry inh	RE007 growth inh	NS1 inh	Cruzain Triton
CCOC(=O)c1cccc(NC(=O)C2CCN(S(=O)(=O)c3c(C)noc3/C=C/c3ccc(C)cc3)CC2)c1	?	·	-10.7%	·	-15.2%[46.1 µM]	·	·	-1.3%
O=C(C1CCC(Cn2c(=O)c3sccc3n(Cc3ccccc3F)c2=O)CC1)N1CCCCC1 (stereo not given)	0.0%	·	8.1%	·	7.6%[46.1 µM]	·	·	-1.8%
O=C(CCNC(=O)c1ccccc1Cl)Nc1ccc(Br)c(C(F)(F)F)c1	-2.3%	-11.9%	-4.8%	14.8%	4.1%	4.5%	-12.3%	-8.0%
CCOC(=O)CNC(=O)/C=C/c1c(Cl)cccc1Cl	27.9%	28.3%	-12.3%	?	22.8%	0.9%	-10.4%	-5.2%
CC(C)OC(=O)c1cccc2c1C(=O)c1ccccc1-2	-5.8%	?	·	-2.4%	26.2%[46.1 µM]	-18.5%	-7.7%	·
COc1ccccc1C(=O)NCCn1cc(SCC(=O)Nc2cc(C)on2)c2ccccc21	-21.4%	-12.5%	-5.0%	7.1%	?	-1.0%	-5.9%	-6.1%
CCc1nnc(SCc2ccc(CSc3nnc(CC)n3N)cc2)n1N	-4.0%	16.4%	-7.7%	3.4%	6.7%	-11.7%	-2.6%	0.8%
CSc1nc(SCC(=O)NC(c2ccccc2)c2ccccc2)c2c3c(sc2n1)CN(C)CC3	-1.1%	9.2µM*	?	-4.3%	?	2.4%	24.8%	-1.1%
Cc1ccccc1C(=O)N1CCN(c2ccc(NC(=O)c3ccccc3[N+](=O)[O-])cc2)CC1	-7.4%	-4.2%[46.1 µM]	·	-0.7%	-19.5%[46.1 µM]	6.7%	1.2%	·
COc1ccc(C(=O)NCc2cn3ccccc3n2)cc1	-7.0%	?	-0.6%	3.2%	2.0%	-5.9%	-3.5%	2.1%
COc1cc(C2C(C#N)=C(N)N(c3cccnc3)C3=C2C(=O)CC(C)(C)C3)ccc1O (stereo not given)	·	10.4%	7.8%	6.9%	0.4%	-2.7%	8.6%	-1.5%
COc1cc(CN2CCC(C(=O)N3CCCC(C)C3)CC2)cc(Br)c1O (stereo not given)	3.2%	4.2%&-0.4%	0.5%	1.3%	?	-0.9%	-3.1%	4.4%
Cc1ccc2oc(=O)c3cnn(CC(=O)N(C)c4ccc(F)cc4)c3c2c1	-12.2%	4.6%[46.1 µM]	4.5%	·	0.1%[46.1 µM]	·	·	-0.2%
Cc1ccc(-n2ncc3c(=O)n(Cc4cccc(C(F)(F)F)c4)cnc32)cc1C	-4.1%	-0.1%[46.1 µM]	6.2%	·	16.0%[46.1 µM]	·	·	-2.6%
CCc1nn(CC(=O)N2CCN(Cc3ccc4c(c3)OCO4)CC2)c(=O)c2cc3occc3n12	?	?	-1.8%	-11.5%	-14.6%	-7.7%	0.0%	-2.8%
CCOC(CNC(=O)CN1C(=O)COc2ccc(S(=O)(=O)N3CCCC3)cc21)OCC	-5.1%	·	·	-1.9%	·	8.7%	2.3%	·
CCOc1ccccc1NC(=O)CSc1nc(=O)n(CCCN2CCOCC2)c2c1CCC2	4.8%	-11.5%	·	2.8%	?	-9.6%	·	·
Cn1c(=O)c2c(nc(CN3CCc4ccccc4C3)n2CCCO)n(C)c1=O	-14.8%	-11.7%[46.1 µM]	·	4.7%	2.7%	-2.8%	·	·
COc1ccccc1C1=NN(C(=O)c2ccccc2)C(c2ccc(Br)cc2)C1 (stereo not given)	-12.0%	·	·	0.7%	·	2.6%	-0.9%	·
Nc1cccc2c(O)cccc12	-3.6%	15.3%	·	·	-5.2%	1.9%	·	·
CN1CCN(Cc2nc(N)nc(Nc3ccc4c(c3)OCCO4)n2)CC1	55.5%[activator]	0.0%	-4.6%	-1.4%	22.5%	-4.9%	1.9%	0.5%
Cc1ccc(Cn2c(C)c3cnn(CC(=O)NC4CCCC4)c(=O)c3c2C)cc1	-6.9%	·	·	-1.0%	·	4.7%	26.6%	·
COc1ccccc1C(=O)NC(C)c1ccc(-n2ccnc2)cc1 (stereo not given)	-4.4%	-4.8%[46.1 µM]	·	4.1%	-6.0%[46.1 µM]	-1.3%	8.9%	·
COCCNC(=O)Cc1c(C)c2cc3c(cc2oc1=O)OC(C)(C)CC3	8.7%	-0.7%[46.1 µM]	·	-1.2%	-24.3%[46.1 µM]	-0.7%	-4.0%	·
CC(=O)NC(Cc1c[nH]c2ccccc12)C(=O)NCc1ccco1 (stereo not given)	-8.6%	0.4%[46.1 µM]	·	2.0%	?	6.8%	-4.0%	·
CSc1nc2ccc(NS(=O)(=O)c3ccc([N+](=O)[O-])cc3)cc2s1	12.3%	4.4%[14.2 µM]	·	-4.2%	3.2%	-18.1%	-3.3%	·
COc1cc(/C(C)=N/NC(=O)Cc2c(C)[nH][nH]c2=O)ccc1O	-13.4%	28.8%	0.1%	-0.3%	16.0%	16.3%	11.4%	0.3%
O=C(NCC1CCCN1S(=O)(=O)c1cccs1)c1ccccc1 (stereo not given)	-6.0%	5.2%	·	-4.7%	-10.0%	14.2%	·	·
COc1ccc(NC(=O)c2sc3nc(C)c(C(=O)Nc4ccc(C)cc4C)c(-c4sccc4C)c3c2N)cc1	-2.6%	?	-13.8%	·	4.2%[46.1 µM]	·	·	-2.5%
Clc1cccc(Cc2ccc(Cl)nn2)c1	5.3%	-1.2%[46.1 µM]	·	-0.8%	-0.1%	-11.5%	·	·
Cc1cc2c(cc3c(SCc4nc(-c5ccccc5)oc4C)nnc(C)n32)o1	-7.1%	·	-9.6%	·	28.3%[46.1 µM]	·	·	-0.5%
O=c1oc2ccccc2c(Nc2ccccc2)c1[N+](=O)[O-]	-10.6%	?	-2.9%	-2.9%	-22.8%	36.9%	-14.3%	-5.0%
CC(Sc1nnc2n1CCCCC2)C(=O)Nc1cccc(S(=O)(=O)N2CCOCC2)c1 (stereo not given)	15.8%	?	·	1.8%	1.8%	4.7%	·	·
COC(=O)c1cn(C(=O)c2cccc3ccccc23)c2ccccc12	-22.9%	·	·	-6.8%	·	8.2%	-3.6%	·
Cc1cccc(NC(=S)N2CCN(C(=O)c3ccco3)CC2)c1C	12.1%	-8.6%[46.1 µM]	·	23.0%	0.8%[46.1 µM]	9.8%	7.3%	·
CCc1nnc(NC(=O)c2nc(S(=O)(=O)Cc3ccccc3)ncc2Cl)s1	-68.7%	?	·	5.3%	?	9.7%	?	·
COC(=O)c1cccc(N(CC(=O)NCC2CCCO2)C(=O)CCC(=O)Nc2cc(C)on2)c1 (stereo not given)	-12.3%	7.0%[46.1 µM]	·	4.8%	?	-7.6%	3.4%	·
Cc1ccnc(SCC(=O)N2CCN(c3cccc(Cl)c3)CC2)n1	?	-2.0%	2.5%	0.7%	-0.1%	-16.7%	-6.7%	-1.4%
CCC(Sc1nnc(C)s1)C(=O)Nc1nccs1 (stereo not given)	-12.9%	-8.0%	-6.9%	0.9%	1.8%	-6.9%	3.6%	-5.1%
COc1cc(C(O)CN)ccc1O (stereo not given)	-18.6%	?	-5.2%	·	-5.0%	5.0%	0.4%	5.3%
COc1cccc(C(=O)Nc2cccc(NC(=O)c3ccc(Cl)cc3Cl)c2)c1	-5.1%	·	?	·	?	·	·	-4.9%
Cc1c2ccccc2nc2c(F)c(N(C)C)c(F)c(F)c12	35.8%[activator]	6.0%	12.8%	-24.4%	-4.6%	-21.8%	-1.6%	-6.3%
COc1ccc(Nc2oc(COc3ccc(OC)cc3)nc2C#N)cc1	0.0%	6.51µM*	-0.1%	7.7%	?	-3.8%	2.7%	-11.8%
COC(=O)Nc1nnc(-c2ccc(OC)cc2)s1	13.3%	?	·	-2.1%	?	-22.6%	-11.2%	·
COC(=O)C1CCN(C(=O)C(C)Oc2ccc(Cl)cc2Cl)CC1 (stereo not given)	-26.6%	3.5%	11.9%	-5.5%	0.8%	7.9%	-6.5%	5.5%
CC1CN(C(C)C(=O)NNC(=O)c2ccc(F)cc2)CC(C)O1 (stereo not given)	20.7%	3.7%[46.1 µM]	·	1.5%	25.6%[46.1 µM]	-12.8%	·	·
Cc1ncc([N+](=O)[O-])n1CC(=O)Nc1ccc(F)cc1F	6.1%	?	·	-1.8%	?	0.6%	3.5%	·
Cc1ccnc(NC(=O)CCC(=O)N(CC(=O)NC(C)(C)C)c2ccc3c(c2)OCCO3)c1	-4.6%	?	·	0.4%	?	-2.9%	-3.7%	·
COc1ccccc1CC1/C(=N/O)C2CCN1CC2 (stereo not given)	·	-0.3%	1.9%	12.5%	-2.4%	14.2%	-3.6%	5.6%
CCCn1ccc(O)c(Cc2ccc(Cl)cc2)c1=O	-9.2%	?	·	-0.7%	14.2%[46.1 µM]	-11.2%	-0.2%	·
Cc1cc(-c2c(C)n([O-])c(C)c(C)[n+]2=O)ccc1F	1.5%	2.7%	-1.2%	2.6%	18.0%	-10.1%	5.1%	0.9%
CCN(CC(=O)NCc1ccc(Cl)cc1)C(=O)c1ccc(S(=O)(=O)N(C)C)cc1	-7.7%	1.5%[46.1 µM]	·	0.5%	3.3%	8.2%	·	·
COc1ccc(C(=O)N2CCCCCC2)cc1OC1CCN(C(C)C)CC1	-14.0%	-27.6%	·	-4.5%	14.4%	-1.7%	-1.5%	·
O=C1C2CCCN2c2ccc(S(=O)(=O)N3CCOCC3)cc2N1Cc1ccccc1F (stereo not given)	-14.6%	7.5%	6.7%	4.7%	-11.5%	6.7%	?	-2.7%
COc1ccc(CNC(=O)CN(C(=O)CCC(=O)Nc2nccs2)c2ccccc2C)cc1	-5.6%	-0.2%[46.1 µM]	·	0.6%	-16.7%	5.7%	4.2%	·
CC(C)Cc1nnc(NC(=O)CCc2ccccc2)s1	21.6%	·	·	0.5%	·	4.3%	1.1%	·
